# Screening results deposited in PubChem BioAssay by several laboratories.
# Ecoli growth: inhibitors of Escherichia coli growth; OD600, 23 h; hits give low values; OD600 absorbance (test concentration not listed); 0.21% of 330,000 active;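 active = OD600 absorbance below the run mean of sample wells minus 3.6 SD, in any replicate, cut at about 0.56 in these data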;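 note: stock transfer was 300 nL into about 60 µL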
# B2AR ag: human beta-2 adrenergic receptor agonism by FAP; response, % (no concentration beside the values); Am2.2-beta2AR cells, FAP receptor internalization, flow cytometry; reference of the scale not given here; P07550; 0.43% of 340,000 active;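 active = response above a set limit, near 3 SD of response in nonfluorescent compounds, cut at about 42% in these data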;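 note: stock transfer was 100 nL into about 11 µL; a reference agonist was the positive control; negative values mostly stem from fluorescent compounds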
# UCH37 DUB inh: blocks the human deubiquitinase UCH37 | Q9Y5K5 | inhibition, % (test concentration not listed) | purified proteasome/UCH37, Ub-AMC cleavage fluorescence | 0.33% of 330,000 active | AID 588478;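 active = mean of two replicates above 20%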;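 note: 0% = compound-free wells with enzyme and 100% = wells lacking proteasome; stock transfer was 100 nL into about 20 µL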
#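 System: Proteasome-associated human UCH37 deubiquitinase; Input: 0.15 nM proteasome in added enzyme buffer; Also added: Ub-AMC substrate from 1 µM stock; Incubation: 30 min compound-proteasome preincubation then 25 min substrate reaction, room temperature; Detection: fluorescence, ex 355 nm, em 460 nm; Read-out: % inhibition of Ub-AMC cleavage fluorescence; Benchmarks: no-proteasome and no-compound wells.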
# A1 inh: inhibitors of the anti-apoptotic protein A1, read as caspase activation. MEF A1-2A-BIM cells, Caspase-Glo 3/7 luminescence, 3 h; percent of clofoctol response, vehicle zero. caspase activation, % (test concentration not listed). 0.066% of 330,000 active;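 active = over half of replicate activation scores above 10%, or exactly half above 10 with the replicate mean above 10; inconclusive = replicate mean below 10 yet half the replicates above 10; inactive = over half of replicates below 10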;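 note: wells of about 30 µL received 50 nL stock; many hits fall short of the cut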
# Vif A3G: inhibitors of Vif binding to APOBEC3G peptide, primary screen, biochemical, TR-FRET, GST-Vif 1-94, biotin-A3G peptide, dose response retest (AID 1117319) | TR-FRET GST-Vif / biotin-A3G peptide binding; higher % means a stronger effect; test concentration not given here; strong numbers were not always called active | one-dose inhibition, %; IC50 in µM for titrated hits | 0.57% of 260,000 active;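 active = above the screen mean plus three standard deviations and confirmed in dose response; inconclusive = results disagree or hit not tested in dose response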;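 note: Vif residues 1-94 fused to GST binding biotinylated APOBEC3G peptide 110-148; 0% = full assay without inhibitor and 100% = GST in place of GST-Vif; retest series ran down from 100 µM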
# HNF4A DNA FP: change in binding of human HNF4 alpha to DNA | P41235 | HNF4a-FITC DNA binding, fluorescence polarization, 1 h | activity change, % at 10 µM | 0.3% of 360,000 active | AID 1224865; in the data active = activity change above about 30%, passing the limit was not always enough;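 note: controls were the assay level and a saturating level of protein; the project sought stronger binding though the title names inhibitors; some compounds called inactive have numbers as strong as hits; positive values seem to mean higher polarization but the record does not say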
# LANA-H2B inh: blocks KSHV LANA binding to histone H2A/H2B. Q9QR71. cell-free LANA-H2A/H2B peptide, fluorescence polarization. inhibition, % (test concentration not listed). 0.6% of 320,000 active; in the data active = inhibition mostly above about 10%, no sharp cut-off; inactive = mostly below about 6.7%;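 note: stock transfer was 7.5 nL into about 10 µL; 0% = median of vehicle wells and 100% = median of positive control wells; one replicate is shown; the record names a cut of 25% in any replicate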
# Target sequence (Q9QR71 whole entry, looked up): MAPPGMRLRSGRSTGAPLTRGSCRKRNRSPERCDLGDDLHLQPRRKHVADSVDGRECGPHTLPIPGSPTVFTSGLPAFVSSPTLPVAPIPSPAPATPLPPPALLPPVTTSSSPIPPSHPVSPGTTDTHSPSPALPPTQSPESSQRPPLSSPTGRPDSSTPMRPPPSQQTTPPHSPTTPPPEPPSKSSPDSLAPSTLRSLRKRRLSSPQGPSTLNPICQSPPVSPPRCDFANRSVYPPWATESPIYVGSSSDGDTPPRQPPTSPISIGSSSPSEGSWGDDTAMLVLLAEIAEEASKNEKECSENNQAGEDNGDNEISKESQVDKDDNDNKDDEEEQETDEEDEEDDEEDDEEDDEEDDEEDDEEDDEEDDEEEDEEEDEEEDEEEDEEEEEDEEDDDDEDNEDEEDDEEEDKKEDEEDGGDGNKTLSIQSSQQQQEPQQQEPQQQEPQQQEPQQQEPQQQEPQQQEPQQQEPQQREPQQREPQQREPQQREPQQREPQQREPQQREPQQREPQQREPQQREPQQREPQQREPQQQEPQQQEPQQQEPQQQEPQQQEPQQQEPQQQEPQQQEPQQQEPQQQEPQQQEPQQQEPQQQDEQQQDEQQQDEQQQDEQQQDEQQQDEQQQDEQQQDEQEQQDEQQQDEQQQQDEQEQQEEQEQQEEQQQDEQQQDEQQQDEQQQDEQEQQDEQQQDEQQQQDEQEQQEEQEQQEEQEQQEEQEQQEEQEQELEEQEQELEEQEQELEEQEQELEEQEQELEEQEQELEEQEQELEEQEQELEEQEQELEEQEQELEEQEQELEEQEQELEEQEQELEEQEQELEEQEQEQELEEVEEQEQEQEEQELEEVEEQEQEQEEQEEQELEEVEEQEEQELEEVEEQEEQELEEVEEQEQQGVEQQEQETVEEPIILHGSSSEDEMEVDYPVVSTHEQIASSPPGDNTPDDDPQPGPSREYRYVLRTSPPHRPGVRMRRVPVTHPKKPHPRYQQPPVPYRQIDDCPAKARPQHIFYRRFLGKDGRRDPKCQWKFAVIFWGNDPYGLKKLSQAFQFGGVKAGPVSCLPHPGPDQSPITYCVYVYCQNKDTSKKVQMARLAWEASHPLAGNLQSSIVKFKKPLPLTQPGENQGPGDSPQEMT
# An asterisk follows results filed as active; ? = inconclusive; nt = not tested or not shown; & = joins results of further samples.
SMILES,Ecoli growth,B2AR ag,UCH37 DUB inh,A1 inh,Vif A3G,HNF4A DNA FP,LANA-H2B inh
CCOC(=O)c1c(NC(=O)c2noc(C)c2[N+](=O)[O-])sc(C(C)=O)c1C,0.71,-4,3.9,1.6,31%,4.2,1.1
Cc1nn(C)c(C(=O)NNC(=S)NCc2ccco2)c1Br,0.69,11,2.0,-0.8,-3%,-4.2,-0.2
COc1ccc(OCC(=O)N/N=C/C2CC=CCC2)cc1 (stereo unspecified),nt,-3,nt,-1.0,9%,1.4,-2.0
CC(CCc1ccccc1)NC(=O)COC(=O)C1=COCCO1 (stereo unspecified),0.75,8,-8.2,0.1,25%,0.4,2.4
CC(=O)N1CCCN(C(=O)c2cc(COc3c(F)cccc3F)on2)CC1,0.7,-5,5.0,-0.3,4%,2.3,-74
O=C(NCC1CCOCC1)c1ccc2nc(Cc3cccc(Cl)c3)oc2c1,0.69,-5,4.1,0.2,nt,-0.9,-5.4
CCOC(=O)c1ccccc1NC(=O)Cn1cnc2c(cnn2C(C)(C)C)c1=O,0.71,3,-22,0.4,13%,-0.4,-0.3
Cc1cccc(C)c1OCC(O)CN1CCN(c2ccccn2)CC1 (stereo unspecified),0.72,1,-2.4,0.4,21%,-5.2,2.9
Nc1c(C(=O)O)sc2nc(-c3ccccc3)c3c(c12)CCCC3,0.73,-11,-6.3,0.0,nt,5.2,-3.5
COC(=O)c1c(C)oc2ccc(OC(=O)N3CCOCC3)cc12,0.72,-11,1.1,-2.5,8%,11,-4.9
CCCCn1c(N)c(N(CC(C)C)C(=O)c2cccc(-n3cnnn3)c2)c(=O)[nH]c1=O,0.68,4,1.5,2.5,6%,1.3,-0.7
Cn1cc(S(=O)(=O)NCC2CCCO2)c(=O)n(C)c1=O (stereo unspecified),0.7,-6,3.9,0.0,25%,-5.7,1.7
Cc1ccccc1Sc1c(C#N)c(-c2ccccc2)nn1C,0.68,10,2.9,-0.3,-7%,-4.5,-4.6
C=C[C@@H]1c2ccccc2N(S(=O)(=O)c2ccc(C)cc2)[C@H](c2ccccc2C(F)(F)F)C1(C#N)C#N,nt,-3,2.4,0.5,nt,-2.5,-2.9
O=[N+]([O-])c1ccc(N/N=C2/CCCCC2c2ccccn2)c([N+](=O)[O-])c1 (stereo unspecified),nt,0,nt,1.8,21%,-1.6,-0.4
Cc1ccccc1OCc1nnc(SCC(=O)Nc2ccc(N3CCOCC3)c(Cl)c2)n1C,0.64,-3,3.7,-0.9,-3%,-1.4,-1.5
Cc1cccc(N(CC(=O)NC2CCCC2)C(=O)CCC(=O)Nc2ccccn2)c1,0.73,-3,3.4,-0.8,nt,-2.1,-5.4
CC1CCCC(NC(=O)CN2CCN(Cc3ccc(Cl)cc3)C2=O)C1C (stereo unspecified),0.69,-8,5.2,0.6,1%,3.3,7.6
CN(CC(=O)Nc1cccc(F)c1)C(=O)C1=COCCO1,0.72,2,9.1,0.4,-13%,4.7,4.5
COc1cc(-c2nc3ccccn3c2/N=C/c2cccc(OC)c2O)ccc1O,nt,-24,nt,-1.0,nt,2.3,2.5

# Three records picked at random from those above, as already listed:
SMILES,Ecoli growth,B2AR ag,UCH37 DUB inh,A1 inh,Vif A3G,HNF4A DNA FP,LANA-H2B inh
O=[N+]([O-])c1ccc(N/N=C2/CCCCC2c2ccccn2)c([N+](=O)[O-])c1 (stereo unspecified),nt,0,nt,1.8,21%,-1.6,-0.4
Cn1cc(S(=O)(=O)NCC2CCCO2)c(=O)n(C)c1=O (stereo unspecified),0.7,-6,3.9,0.0,25%,-5.7,1.7
COc1ccc(OCC(=O)N/N=C/C2CC=CCC2)cc1 (stereo unspecified),nt,-3,nt,-1.0,9%,1.4,-2.0

# Remaining list, next part
SMILES,Ecoli growth,B2AR ag,UCH37 DUB inh,A1 inh,Vif A3G,HNF4A DNA FP,LANA-H2B inh
COc1ccc(S(=O)(=O)N(CC(=O)N2CCOCC2)c2cc(Cl)ccc2OC)cc1OC,0.7,-2,2.2,nt,32%,-0.2,nt
COc1c(C=O)c2c(c(OC)c1OC)-c1ccc(OC)c(=O)cc1C(NC(C)=O)CC2 (stereo unspecified),nt,13,nt,nt,10%,0.2,nt
CCOc1cc(CNc2ccc(O)cc2)cc(Br)c1OCc1ccccc1F,0.75,13,0.8,0.4,?,-0.1,-0.1
C/C=C(/C)C(=O)Nc1cccc(C2=NOC3(C2)C[C@@H](C(N)=O)N(C(=O)c2ccc(OC)cc2)C3)c1 (stereo partly specified),nt,0,1.2,-0.1,nt,0.6,-0.2
O=C(NCc1ccccc1F)C(c1ccccc1)c1ccccc1,0.67,1,1.4,-0.4,-2%,2.7,-2.7
O=C(Nc1nnc(CC(=O)N2CCOCC2)s1)c1cccs1,0.74,-5,6.1,0.4,24%,1.5,0.5
CS(=O)(=O)N(CC(=O)N1CCc2ccccc2C1)c1ccccc1Br,0.66,1,6.2,0.2,nt,0.0,0.3
O=C(CN1CCCC1)Nc1ccc([N+](=O)[O-])cc1,0.65,-2,6.5,0.7,19%,-2.2,2.4
O=C(Nc1ccc(N2CCN(C(=O)c3cccs3)CC2)cc1)c1ccc(F)cc1,0.58,-3,0.7,0.0,nt,3.3,1.1
C[C@]12c3[nH]c4ccc(Cl)cc4c3CCN1C(=O)[C@@H](CC(=O)NCCC1=CCCCC1)C[C@@H]2C(=O)N1CCOCC1,0.7,9,1.8,nt,nt,-1.3,nt
COC(=O)c1cc2oc(C)cc2n1CC(=O)Nc1cc(C)cc(C)c1,0.71,2,2.5,-0.5,1%,-2.4,0.9
Clc1ccc(OCc2cc(-c3ccccc3)no2)c(Cl)c1,0.66,2,2.7,-5.3,-9%,-4.4,-5.2
CC(=O)c1c(O)c(C)c(O)c2c1OC1=CC(=O)C(C(C)=O)C(=O)[C@@]12C (stereo partly specified),0.62,9,5.7,nt,7%,65*,nt
CCOC(=O)N1CCC(NC(=O)C2CCN(S(=O)(=O)c3cccc4cccnc34)CC2)CC1,0.7,nt,4.9,nt,10%,nt,nt
CC(=O)c1cccc(N(C(=O)Cn2nnc3ccccc32)C(C(=O)NCc2ccccc2)c2ccccn2)c1 (stereo unspecified),0.68,-3,-1.0,0.1,-3%,5.4,6.8
O=C1NCCCCC1NS(=O)(=O)c1ccccc1 (stereo unspecified),0.63,8,-1.4,0.1,0%,-2.1,-5.4
CCOC(=O)c1cc2nc(Nc3ccc(OC)cc3)sc2s1,0.69,5,-13,-0.1,4%,18,-1.6
COc1ccc(C2(C(=O)NC(C)C)CCCC2)cc1OC,0.65,3,5.8,0.1,4%,-3.0,1.1
COc1ccc(C(c2nnnn2CC2CCCO2)N2CCN(c3ccc(F)cc3)CC2)cc1 (stereo unspecified),0.78,10,4.4,0.7,17%&2%,0.4,-0.4
CN(CC(=O)Nc1ccc(F)c(F)c1F)C(=O)Cc1ccc(S(=O)(=O)N2CCOCC2)s1,0.68,2,-1.1,nt,nt,0.4,nt
CC(=O)c1ccc(NC(=O)C(C)Sc2n[nH]c(-c3cccnc3)n2)cc1 (stereo unspecified),0.67,-3,-0.3,-0.4,nt,3.3,2.6
COC(=O)c1ccc(COc2nc(C)cc(C)c2C#N)o1,0.67,0,1.2,2.2,3%,5.2,-6.1
CCCCCC(NC(=O)C1CCN(C(=O)[C@@H](NS(=O)(=O)c2ccc(C)cc2)C(C)C)CC1)C(=O)O (stereo partly specified),0.71,4,2.8,-0.5,nt,4.4,5.6
COc1ccc(C)cc1N(CC(=O)N1CCOCC1)S(C)(=O)=O,0.67,-3,1.0,-0.3,nt,-2.7,0.4
O=C(NCCN1CCN(Cc2ccccc2)CC1)c1cc2c(=O)[nH]c3ccccc3c2s1,0.66,13,-100,1.0,29%,9.9,-2.2
O=C1CCCCC(=O)N(c2ccccc2)c2ccccc21,0.69,2,3.6,-0.6,3%,-7.1,-5.8
CCOC(=O)C(C(=O)OCC)c1c([N+](=O)[O-])c(=O)n2c3c(cccc13)CCC2,0.64,-3,3.9,1.2,6%,-1.8,-6.6
COc1ccc(OC)c(NC(=O)CSc2nnc3ccc(-c4ccccn4)nn23)c1,0.69,5,2.0,0.2,1%,1.4,nt
Cc1cccc(C)c1NC(=O)CCCN1C(=O)C(c2ccccc2)Oc2cccnc21 (stereo unspecified),0.7,5,1.8,2.6,nt,0.9,-7.6
ClCc1ncc(-c2ccc(Cl)cc2)o1,0.67,-1,5.8,0.5,26%,2.8,-1.2
NS(=O)(=O)c1ccc(CCNC(=O)c2ccco2)cc1,0.71,2,0.8,2.1,4%,1.1,-1.7
Cc1ccc(OCC(O)CNS(=O)(=O)c2ccccc2C(=O)O)cc1 (stereo unspecified),0.72,2,4.7,0.4,4%,-7.7,2.9
Cc1ccc(NC(=O)Nc2cccnc2)cc1NC(=O)Nc1cccnc1,0.69,14,0.9,-0.1,1%,1.8,-4.4
CCN(C[C@H]1N[C@@](CC)(C(=O)OC)[C@H]2C(=O)N(C)C(=O)[C@@H]12)C(=O)Nc1ccc(C(F)(F)F)cc1,0.71,1,6.3,0.3,-6%,1.6,-0.8
O=C(COC(=O)C1CCC1)NCc1ccccc1,0.68,0,1.7,-0.4,-8%,-1.7,-2.1
CCC1CCc2c(sc(N)c2C(N)=O)C1 (stereo unspecified),0.65,0,-2.4,0.6,2%,1.8,0.5
CCC(C)(C(=O)NC1CCCC1)N(C(=O)c1ccccn1)c1ccccc1 (stereo unspecified),0.67,13,1.5,0.4,2%,-1.8,5.1
CN(/C=C/c1c([N+](=O)[O-])c(=O)n(C)c(=O)n1C)c1ccccc1,0.7,-16,11,0.3,12%,4.8,-0.8
Cc1nc2c(O)cccc2cc1CO,0.7,-2,-0.8,0.7,-5%,2.3,-7.9
COc1ccccc1CNC(=O)CSc1nnc2ccc(-c3cccnc3)nn12,0.65,-6,0.2,0.6,-8%,-1.6,2.9
CC(C)c1ccc(C2OCC(C)([N+](=O)[O-])CO2)cc1 (stereo unspecified),0.68,4,0.6,nt,-3%,-1.1,nt
O=C(c1cc2nc(-c3ccco3)cc(C(F)(F)F)n2n1)N1CCCc2ccccc21,0.7,-6,-7.0,0.4,4%,2.8,-1.3
Cc1c(C(=O)NC(C)c2ccccc2)c(-c2ccccc2)nn1-c1ccccc1 (stereo unspecified),0.76,-5,4.6,0.4,3%,-0.4,1.1
CC12CCCCC1=CC(=O)CC2 (stereo unspecified),0.66,2,5.1,nt,1%,4.0,nt
O=C(COC(=O)c1cc(=O)[nH]c2ccc(Br)cc12)c1ccccc1,0.7,-5,3.9,-0.2,-78%,1.9,-3.4
CCSc1nc2ccccc2n1C(=O)c1ccc(S(=O)(=O)N2CCCCCC2)cc1,0.66,53*,5.2,0.4,28%,-0.7,-0.1
COc1ccc(/C=N/NC(=O)C2(O)c3ccccc3-c3ccccc32)cc1,nt,1,nt,0.1,-9%,0.4,-1.5
Cc1ccc(NC(=O)CC(=O)Nc2ccc(C)c(C)c2)cc1C,nt,-9,nt,0.2,nt,0.6,0.0
COc1cccc2cc(C(C)=O)c(=O)oc12,0.73,1,3.6,0.4,4%,1.1,0.6
CCOC(=O)c1ccc(NC(=S)N2CCN(C(=O)C3CCCO3)CC2)cc1 (stereo unspecified),0.72,-8,0.6,0.0,nt,-0.1,-7.2
Cc1cccc(OCC(=O)Nc2ccc(NC(=O)c3ccco3)cc2)c1,0.65,-13,-4.2,nt,nt,0.6,nt
O=C(Nc1cccs1)Nc1c(F)c(F)cc(F)c1F,0.6,-5,-3.5,0.0,31%,3.3,-2.4
